Assay outcomes as filed in PubChem.
rRNA inh HTS – reduced GFP signal of wild-type E. coli, primary screen, bacterial rRNA inhibitor project, GFP/RFP fluorescence, OD600, single point; E. coli WT GFP vs humanized-ribosome RFP mutants, 24 h; stronger effect = lower value; DMSO median 0, no signal -100; GFP signal change (wild-type ribosome), % (no concentration beside the values); actives 1.6% (n = 350,000);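 active means significant combined selectivity score with lowered wild-type GFP, culture density cut under 30%, mutant RFP and density less affected; inactive means any of these conditions unmet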; further: one replicate is shown; some compounds called inactive have numbers as strong as hits
FGF22 binding – binders of human FGF22 protein, primary screen, FGF22 synaptogenesis inhibitor project, biophysical, thermal shift, single point. Fibroblast growth factor 22 (Homo sapiens), Q9HCT0. recombinant FGF22 thermal shift, SYPRO orange fluorescence; percent of sucrose octasulfate shift, DMSO zero. AID 651658, 2012. actives 1.5% (n = 340,000). calls only at 9.99 µM;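 active means melting point raised past a set limit in the mean and every replicate; three in four hits are not shown here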
Target sequence (Q9HCT0 whole entry, looked up): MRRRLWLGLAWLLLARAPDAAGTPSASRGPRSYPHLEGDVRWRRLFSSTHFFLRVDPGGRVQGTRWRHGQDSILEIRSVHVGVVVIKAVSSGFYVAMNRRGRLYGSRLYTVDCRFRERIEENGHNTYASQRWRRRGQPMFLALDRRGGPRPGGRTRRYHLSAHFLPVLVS
rRNA inh HTS OD600 – further read-out of rRNA inh HTS, marked with its call; OD600 change, %; measured here: OD600 growth;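 optical density of the mix in the first replicate; 0 = DMSO median and -100 = no signal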
rRNA inh HTS RFP – also measured in rRNA inh HTS; calls as there; RFP signal change, %; measured here: RFP humanized mutant strains;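 first replicate; 0 = DMSO median and -100 = no signal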
The depositor's hits bear a star; i = inactive; & = joins results of further samples. Only part of the results is shown; the hit share may differ from the screen's.

SMILES	rRNA inh HTS	rRNA inh HTS OD600	rRNA inh HTS RFP	FGF22 binding
CC(C)C[C@@H]1COCc2cn(nn2)CC[C@H](C)C(=O)N1	2	-1	-1.3	i
CO[C@H]1CC[C@H]2CCN(C)C(=O)CC3(CCCCC3)CN(C)C(=O)c3cccc(C#N)c3OC[C@H]1O2	0	5	-3.4	i
O=C(NCC[C@@H]1CC[C@@H](NS(=O)(=O)c2cccc(Cl)c2)[C@@H](CO)O1)c1cnccn1	2	7	-0.8	i
Cc1noc(C)c1NC(=O)Nc1ccc2c(c1)C(=O)N([C@H](C)CO)C[C@H](C)[C@H](CN(C)C(=O)Cc1ccccc1)OCCCC[C@H](C)O2	-4	-1	0.5	i
Cc1noc(C)c1NC(=O)N(C)C[C@H]1Oc2ncc(C#CC3CCCCC3)cc2C(=O)N([C@H](C)CO)C[C@H]1C	3	3	0.4	i
Cc1ccccc1-c1ccc2c(c1)O[C@@H](CN(C)Cc1ccncc1)[C@H](C)CN([C@H](C)CO)S2(=O)=O	-37	-48	9.0	i
OC[C@H]1[C@H](c2ccc(Br)cc2)[C@H]2CN(Cc3ccccn3)CCCCN21	9	2	5.6	i
CC(C)C#Cc1cnc2c(c1)C(=O)N([C@@H](C)CO)C[C@@H](C)[C@H](CN(C)C(=O)CN1CCOCC1)O2	4	7	-3.3	i
Cc1cccc(-c2ccc([C@@H]3[C@H](CO)N4CCCCN(CCC(F)(F)F)C[C@@H]34)cc2)c1	-57	-76	-12	i
C[C@@H]1CN([C@@H](C)CO)C(=O)c2cc(NC(=O)CCC(F)(F)F)ccc2O[C@@H](C)CCCCO[C@@H]1CN(C)S(=O)(=O)c1cccs1	-2	-8	0.6	i
CNC[C@H]1OCCCC[C@@H](C)Oc2ccc(N(C)C)cc2C(=O)N([C@H](C)CO)C[C@@H]1C	5	14	1.5	i
COc1ccc(CN2[C@@H]3CN(C(=O)c4ccccc4)c4ccccc4[C@@H]3[C@@H]2CO)cc1	-4	-17	4.1	i
C[C@@H]1CN([C@@H](C)CO)C(=O)c2cccc(NC(=O)Nc3ccc(F)cc3)c2O[C@H]1CN(C)C	3	9	-1.6	i
C[C@H](NC(=O)[C@H]1[C@H](CO)[C@H]2Cn3c(cccc3=O)[C@@H]1N2C(=O)C1CC1)c1ccccc1	6	14	-2.9	i
C[C@H]1CN([C@@H](C)CO)C(=O)CCCn2cc(nn2)CO[C@@H]1CN(C)Cc1cccc(C(F)(F)F)c1	-1	-2	0.8	i
COC(=O)C[C@H]1C=C[C@@H](NS(=O)(=O)c2ccccc2F)[C@H](CO)O1	2	7	-1.4	i
C[C@@H]1CN([C@@H](C)CO)C(=O)c2cc(NS(C)(=O)=O)ccc2O[C@@H](C)CCCCO[C@@H]1CN(C)C(=O)Cc1ccccc1	-5	-2	-2.9	i
CO[C@@H]1CN(C)C(=O)c2cc(NC(=O)C3CCCCC3)ccc2OC[C@@H](C)N(Cc2cccnc2)C[C@H]1C	0	5	-2.8	i
C[C@@H]1CN([C@@H](C)CO)C(=O)CCCn2cc(nn2)CO[C@H]1CN(C)C(=O)Nc1ccccc1F	-1&27	1&16	-0.2&2.4	i
C[C@@H]1CN([C@@H](C)CO)C(=O)c2ccccc2-c2ccccc2CO[C@H]1CN(C)Cc1ccccc1C(F)(F)F	1	-9	2.7	i
C[C@@H]1CN([C@H](C)CO)S(=O)(=O)c2ccc(C#CC3CC3)cc2O[C@H]1CN(C)C(=O)C1CCC1	-51	-77	-14	i
O=C(c1ccccn1)N1CC[C@@H]2[C@@H](CO)Nc3ccc(Br)cc3[C@@H]21	-1	9	-2.1	i
CC(C)NC(=O)N(C)C[C@@H]1Oc2ncc(C#CCc3ccccc3)cc2C(=O)N([C@@H](C)CO)C[C@H]1C	4	-1	-0.4	i
C[C@@H]1CN([C@H](C)CO)C(=O)c2cc(NS(=O)(=O)c3cn(C)cn3)ccc2O[C@@H]1CN(C)Cc1ccccc1	3	8	-2.2	i
O=C(C[C@H]1CC[C@@H](NC(=O)c2ccc(F)cc2)[C@@H](CO)O1)NCCc1ccccc1	0	-1	0.7	i
N#C[C@H]1[C@@H](c2ccc(C3=CCCCC3)cc2)[C@@H](CO)N1C(=O)Cc1ccncc1	1	0	0.4	i
COC(=O)[C@]12C[C@H](CC(=O)NCc3ccccc3)C(=O)N(CCC3=CCCCC3)C1=C[C@H](C(C)(C)C)O[C@@H]2C	14	6	0.6	i
Cc1noc(C)c1S(=O)(=O)Nc1ccc2c(c1)C(=O)N([C@@H](C)CO)C[C@H](C)[C@@H](CN(C)C(=O)Nc1ccc(F)cc1)OCCCC[C@H](C)O2	0	-8	3.1	i
C[C@@H]1CN([C@H](C)CO)S(=O)(=O)c2ccc(-c3cncnc3)cc2O[C@H]1CN(C)C(=O)Cc1ccccc1	2	-13	-1.7	i
CO[C@@H]1CN(C)C(=O)c2ccc(NC(=O)C3CCC3)cc2OC[C@@H](C)N(Cc2ccc(F)cc2)C[C@H]1C	1	-5	2.5	i
C[C@@H]1CN([C@H](C)CO)C(=O)c2cc(NC(=O)Nc3ccc(C(F)(F)F)cc3)ccc2O[C@@H]1CN(C)S(=O)(=O)c1cn(C)cn1	-4	-11	0.9	i
COc1ccc(S(=O)(=O)N(C)C[C@@H]2OCCCC[C@@H](C)Oc3ccc(NS(=O)(=O)c4cn(C)cn4)cc3C(=O)N([C@H](C)CO)C[C@H]2C)cc1	-3	3	-1.4	i
C[C@H]1CN([C@@H](C)CO)C(=O)CCCn2cc(nn2)CO[C@H]1CN(C)C(=O)Nc1ccc(-c2cccs2)cc1	-3	-4	-1.2	i
CC(C)NC(=O)N(C)C[C@H]1Oc2ccc(NC(=O)CCC(F)(F)F)cc2CC(=O)N([C@H](C)CO)C[C@@H]1C	6	19	0.6	i
CCC(=O)N(C)C[C@@H]1Oc2ncc(C#CCC(C)C)cc2C(=O)N([C@H](C)CO)C[C@H]1C	3	4	0.8	i
C[C@@H]1CCCCO[C@@H](CN(C)Cc2ccc(C(F)(F)F)cc2)[C@H](C)CN([C@@H](C)CO)C(=O)c2cc(NC(=O)Nc3ccccc3)ccc2O1	2	8	5.9	i
C[C@@H]1CN([C@@H](C)CO)C(=O)c2cc(NC(=O)C3CC3)ccc2O[C@H]1CN(C)S(=O)(=O)c1ccc(Cl)cc1	-1	-2	-1.2	i
C[C@H]1CCCCO[C@H](CN(C)Cc2ccncc2)[C@@H](C)CN([C@@H](C)CO)C(=O)c2cc(NS(=O)(=O)c3cccs3)ccc2O1	-1	-8	3.1	i
C[C@H]1CN([C@@H](C)CO)C(=O)c2cc(NC(=O)c3ccncc3)ccc2O[C@@H]1CN(C)CC1CCCCC1	1	4	1.2	i
CCCC#Cc1ccc([C@@H]2[C@@H](CO)N3CCCCN(CC4CC4)C[C@H]23)cc1	-1	-5	13	i
CN(C)Cc1cn(CC[C@@H]2CC[C@H](N)[C@@H](CO)O2)nn1	1	5	-1.7	i
O=C(C[C@H]1CC[C@H](NC(=O)Nc2ccc(C(F)(F)F)cc2)[C@H](CO)O1)NCc1ccccn1	-1	3	0.0	i
C[C@H](CO)N1C[C@H](C)[C@@H](CN(C)S(=O)(=O)c2ccc(Cl)cc2)OCCCC[C@H](C)Oc2ccc(NC(=O)Nc3ccc(C(F)(F)F)cc3)cc2C1=O	3	3	-0.2	i
Cc1noc(C)c1S(=O)(=O)Nc1ccc2c(c1)C(=O)N([C@H](C)CO)C[C@H](C)[C@H](CN(C)CC1CCCCC1)O2	1	3	-0.5	i
COc1ccc(NC(=O)N(C)C[C@@H]2Oc3cc(C#CCC(C)C)ccc3S(=O)(=O)N([C@H](C)CO)C[C@H]2C)cc1	-7	-11	3.5	i
CC(C)NC(=O)N(C)C[C@H]1OCCCC[C@@H](C)Oc2ccc(NS(=O)(=O)c3ccccc3)cc2C(=O)N([C@H](C)CO)C[C@@H]1C	-1	1	-0.4	i
Cc1ccc(S(=O)(=O)Nc2cccc3c2O[C@@H](CN(C)Cc2ccncc2)[C@H](C)CN([C@H](C)CO)C3=O)cc1	-1	5	-2.9	i
COc1ccc2c3c([nH]c2c1)[C@H](CO)N(Cc1ccc(F)cc1)CC31CCN(C(C)=O)CC1	4	6	-0.5	i
C[C@@H]1CN([C@@H](C)CO)S(=O)(=O)c2ccc(Br)cc2O[C@@H]1CN(C)S(C)(=O)=O	-1	3	-2.8	i
CC(C)NC(=O)NCC[C@@H]1CC[C@@H](NC(=O)c2ccc(F)cc2)[C@@H](CO)O1	2	2	-0.5	i
CC(C)C#Cc1cnc2c(c1)C(=O)N([C@H](C)CO)C[C@H](C)[C@H](CN(C)Cc1ccc3c(c1)OCO3)O2	6	5	0.3	i
CC(C)(C)[S@@](=O)N1Cc2cc(C(=O)NCCc3ccncc3)nc(-c3cccc(-c4cccc(C#N)c4)c3)c2[C@H]1CCO	-3	-19	2.5	i
C[C@H]1CN([C@@H](C)CO)C(=O)c2cc(NC(=O)C3CCCCC3)ccc2O[C@H]1CN(C)C(=O)Nc1ccccc1	1	0	1.0	i
COc1ccc(NC(=O)Nc2cccc3c2O[C@@H](CN(C)C(=O)Nc2ccc(OC)cc2)[C@H](C)CN([C@H](C)CO)C3=O)cc1	-2	2	-0.6	i
Cc1noc(C)c1NC(=O)N(C)C[C@H]1Oc2c(NC(=O)Nc3cccc4ccccc34)cccc2C(=O)N([C@H](C)CO)C[C@H]1C	3	-1	-2.0	i
C/C=C/c1ccccc1[C@@H]1[C@@H](CO)N(C(=O)NC2CCCCC2)[C@H]1C#N	-6	5	1.0	i
CS(=O)(=O)N1[C@@H](C#N)[C@@H](c2ccc(C#CC3CC3)cc2)[C@@H]1CO	-1	-7	-1.2	i
C[C@H]1CCCCO[C@@H](CN(C)C)[C@@H](C)CN([C@@H](C)CO)C(=O)c2cc(NC(=O)Nc3ccc(F)cc3)ccc2O1	-5	8	-6.4	i
CN1c2ccc(-c3cccc(C#N)c3)cc2[C@@H]2[C@@H](CCN2C(=O)NC2CCCCC2)[C@H]1CO	-8	-32	8.9	i
O=C(N[C@H]1CC[C@@H](CCn2cc(-c3ccccn3)nn2)O[C@H]1CO)c1cccnc1	-1	-1	-0.6	i

Reformatted with two lines to a compound: part of the list above
Below each SMILES – rRNA inh HTS, rRNA inh HTS OD600, rRNA inh HTS RFP, FGF22 binding
C[C@@H]1CN([C@H](C)CO)S(=O)(=O)c2ccc(C#CC3CC3)cc2O[C@H]1CN(C)C(=O)C1CCC1
    -51, -77, -14, i
O=C(c1ccccn1)N1CC[C@@H]2[C@@H](CO)Nc3ccc(Br)cc3[C@@H]21
    -1, 9, -2.1, i

Of the compounds above, 3 have a thiophene ring, fused or not:
SMILES	rRNA inh HTS	rRNA inh HTS OD600	rRNA inh HTS RFP	FGF22 binding
C[C@@H]1CN([C@@H](C)CO)C(=O)c2cc(NC(=O)CCC(F)(F)F)ccc2O[C@@H](C)CCCCO[C@@H]1CN(C)S(=O)(=O)c1cccs1	-2	-8	0.6	i
C[C@H]1CN([C@@H](C)CO)C(=O)CCCn2cc(nn2)CO[C@H]1CN(C)C(=O)Nc1ccc(-c2cccs2)cc1	-3	-4	-1.2	i
C[C@H]1CCCCO[C@H](CN(C)Cc2ccncc2)[C@@H](C)CN([C@@H](C)CO)C(=O)c2cc(NS(=O)(=O)c3cccs3)ccc2O1	-1	-8	3.1	i

(cont.)
SMILES	rRNA inh HTS	rRNA inh HTS OD600	rRNA inh HTS RFP	FGF22 binding
O=C(C[C@H]1CC[C@@H]2[C@H](COC[C@@H](O)CN2C(=O)c2ccncc2)O1)NC1Cc2ccccc2C1	8	14	-1.7	i
C[C@@H]1CN([C@H](C)CO)C(=O)Cc2cc(NC(=O)Cc3cn(C)c4ccccc34)ccc2O[C@H]1CN(C)Cc1ccc(C(F)(F)F)cc1	-9	3	-3.8	i
COc1ccc(S(=O)(=O)N[C@H]2C=C[C@@H](CC(=O)N3CCN(c4ccccc4)CC3)O[C@@H]2CO)cc1	-4	-6	-1.9	i
CO[C@H]1CN(C)C(=O)c2cc(NC(=O)Cc3ccccc3)ccc2OC[C@H](C)N(C(C)=O)C[C@H]1C	-1	1	0.7	i
C[C@H]1CN([C@@H](C)CO)C(=O)Cc2cc(NC(=O)C3CCCCC3)ccc2O[C@H]1CN(C)C	3	11	1.6	i
C[C@@H]1CN([C@H](C)CO)C(=O)c2cc(NC(=O)CCCN(C)C)ccc2O[C@H]1CN(C)Cc1ccccc1	0	8	-2.5	i
O=C(Nc1ccc2c(c1)[C@H]1C[C@@H](CC(=O)N3CCCCC3)O[C@@H](CO)[C@H]1O2)c1cccnc1	3	4	-1.9	i
CCNC(=O)C[C@@H]1CC[C@H]2[C@@H](COC[C@H](O)CN2C(=O)c2cc(Cl)cc(Cl)c2)O1	4	3	3.3	i
O=C(NC1CCCCC1)N1CC2(C1)[C@H](c1ccccc1)[C@H](CO)N2CC1CCCC1	-13	-36	3.6	i
CCC(=O)N(C)C[C@@H]1Oc2cc(-c3ccc(F)cc3)ccc2S(=O)(=O)N([C@H](C)CO)C[C@H]1C	-2	-19	-3.6	i

Look-ups from the results shown:
C[C@@H]1CN([C@H](C)CO)C(=O)Cc2cc(NC(=O)Cc3cn(C)c4ccccc34)ccc2O[C@H]1CN(C)Cc1ccc(C(F)(F)F)cc1 in rRNA inh HTS RFP → -3.8
C[C@H]1CN([C@@H](C)CO)C(=O)Cc2cc(NC(=O)C3CCCCC3)ccc2O[C@H]1CN(C)C in rRNA inh HTS → 3
O=C(C[C@H]1CC[C@@H]2[C@H](COC[C@@H](O)CN2C(=O)c2ccncc2)O1)NC1Cc2ccccc2C1 in rRNA inh HTS RFP → -1.7
